VACV mCherry inh: qHTS for Stage-Specific Inhibitors of Vaccinia Orthopoxvirus: mCherry Reporter Primary qHTS; Vaccinia virus mCherry reporter infection, fluorescence; about a quarter of the inactives have no number; Potency, µM (highest dose often 36.5 µM), inactives show top-dose activity change, negative = inhibition, hits mostly inhibitors; 310,000 compounds, 0.63% hits; active = well fitted inhibition curve with a large enough effect; inconclusive = small, poorly fitted or top-dose-only effect; inactive = no such curve, though single readings can be large or run the other way; tested in A549 cells; also: nearly all actives have a fitted effect of over 35% in size; inactives centre near -10
VACV Venus inh: qHTS for Stage-Specific Inhibitors of Vaccinia Orthopoxvirus: Venus Reporter Primary qHTS; Vaccinia virus Venus reporter expression, fluorescence; Potency, µM (titrated, usually from 36.5 µM), for inactives: at the top dose activity change, negative = inhibition, most hits filed as inhibitors; 330,000 compounds, 0.46% hits; AID 720580, 2013; active means well fitted inhibition curve with a large enough effect; inconclusive means small, poorly fitted or top-dose-only effect; inactive means no such curve, though single readings can be large or run the other way; tested in A549 cells; also: nearly all actives have a fitted effect of over 30% in size; inactives centre near -10
The depositor's hits bear a star; i = inactive; u = inconclusive; x = no result given; [ ] = another dose, or the depositor's remark. % is scaled to controls: 0 for no effect and ±100 for the full control effect; potency is read from the fitted curve at half-maximal effect.

SMILES	VACV mCherry inh	VACV Venus inh
CCOC(=O)C1CCCN(S(=O)(=O)c2ccc(Cl)nc2)C1 (centres undefined)	14µM*	u
Cc1[nH]c2ccc(Br)cc2c1CCNC(=O)c1cc2ccccc2oc1=O	-1%	1%
O=C(Nc1nnc([C@@H]2C[C@H](O)[C@@H](CO)O2)s1)Nc1ccccc1Oc1ccccc1	40%[activator]	-12%
CCOC(=O)c1c(/N=C/C2=C(O)CCCC2=O)sc(C)c1C	-27%	-20%
CC(Oc1ccc(Cl)cc1Cl)C(=O)OCn1nnc2ccccc2c1=O (centres undefined)	-14%	-3%
COc1ccc(NC(=O)C2CCC(CNS(=O)(=O)c3cccs3)CC2)cc1 (centres undefined)	-7%	-17%
CCCCOC(=O)c1ccc(NC(=O)C(=O)NCc2ccccn2)cc1	i	-13%
COc1ccc(CN2CCC(n3cc(C(=O)N4CCCC4)nn3)CC2)c(OC)c1C	-4%	4%
CCN(CCO)Cc1csc2cc(C)ccc12	-24%	-15%
CCC1Oc2ccccc2C(=O)N(CC(=O)c2ccc3c(c2)OCCO3)C1=O (centres undefined)	-23%	-10%
O=C(COC(=O)c1ccc(O)cc1)Nc1ccccc1-c1ccccc1	-23%	-28%
CCCCC(=O)NC1=C(C(=O)OC)SCC1	-8%	-2%
N#C/C(=C/c1ccc(-c2cccc([N+](=O)[O-])c2)o1)C(=O)Nc1nc(-c2cccs2)cs1	-4%	-11%
Cc1ccc(-c2cc(Cc3ccccc3)c(=O)[nH]n2)cc1	u	-26%
COc1cccc(OCc2cc(/C=N/Nc3ccc(C(=O)O)cc3)ccc2OC)c1	u	5%[7.34 µM]
O=C1c2ccc3c4c(ccc(c24)C(=O)N1NC(=O)C(F)(F)F)CC3	-1%	-4%
Cc1c(Cl)ccc2sc(N3CCN(C(=O)CS(=O)(=O)c4ccccc4)CC3)nc12	i	-10%
COc1cc(/C=C/C(=O)OCC(=O)NC2CC2)cc(S(=O)(=O)N2CCc3ccccc32)c1OC	-14%	-8%
COc1ccc(/C=C2\Oc3cc(OCC(=O)N4CC(O)C[C@H]4C(=O)O)ccc3C2=O)cc1OC (some centres undefined)	-11%	0%
CSc1ncccc1C(=O)Nc1nnc(C2CC2)s1	-19%	2%
CCCC(=O)Nc1cc(C)c(NC(=O)c2ccncc2)cn1	-13%	-4%
CCC(=O)NC(Nc1sc2c(c1C(=O)OC)CCC2)C(Cl)(Cl)Cl (centres undefined)	u	u
CC1(C(=O)NCc2ccc(C(F)(F)F)cc2)CCN1C1Cc2ccccc2C1 (centres undefined)	1%	-13%
Cc1ccc(C(=O)Nc2cccc3[nH]c(C(F)(F)F)nc23)cc1	u	u
COc1cc(OC)c(N(C)S(=O)(=O)c2cccc(C(=O)OCC(=O)N3CCOCC3)c2)cc1Cl	i	-11%
CCOC(=O)c1ccc(NC(=O)CSc2nc3ccccc3c(=O)n2CCC(=O)NC2CCCCC2)cc1	0%	2%
CC(C)Cc1cc(C(=O)Nc2cccnc2)no1	9%	10%
O=C(COC(=O)c1sc2ccccc2c1Cl)NC1CCCCC1	-14%	-14%
Cc1cc(=O)oc2cc(OCC(=O)N3CC[C@@]4(O)CCCC[C@H]4C3)c(Cl)cc12	7%	-6%
COc1ccccc1CNC(=O)c1c(O)nc2c(C)cccn2c1=O	-13%	-5%
O=S(=O)(Nc1ccc(-n2cnnn2)cc1)c1ccc(Cl)cc1	i	-6%
Clc1ccc(N2CCN(/N=C/c3ccncc3)CC2)cc1	i	-15%
CCC1CN(S(=O)(=O)c2cc(-c3cc(C)no3)ccc2OC)c2cc(Cl)ccc2O1 (centres undefined)	i	-15%
Cc1ccc(N2CC(NC(=O)Cc3ccc(F)cc3)CC2=O)cc1C (centres undefined)	-6%[7.34 µM]	-9%[7.34 µM]
Cc1ccccc1-n1c(SC(C)C(=O)NCC2CCCO2)nnc1-c1ccncc1 (centres undefined)	i	-19%
O=C(CSc1nc(=O)n(CCN2CCOCC2)c2c1CCCC2)Nc1ccc(F)cc1F	-18%	-13%
COc1cc(/C=N/Nc2ccc(S(N)(=O)=O)cc2)cc(OC)c1OC	u	-24%
COC(=O)c1sccc1NC(=O)c1ccccc1[N+](=O)[O-]	-9%	-11%
CC(C(=O)N1CCc2ccccc21)N1CCN(c2ccccn2)CC1 (centres undefined)	-7%	-3%
CCOC(=O)Cc1cc(=O)n2[nH]c(C)c(-c3ccccc3OC)c2n1	1%	6%
CN1C(=O)C(=O)/C(=C(/O)c2ccc(Br)cc2)C1c1ccccc1F (centres undefined)	-24%	-10%
O=C(O)C(F)=C1c2ccccc2-c2ccccc21	-22%	-15%
COC(=O)[C@]1(C)N[C@H](c2ccc(-c3ccccc3)cc2)[C@@H]2C(=O)N(C)C(=O)[C@@H]21	-7%	-14%
CCCCCCCCN1C(=O)[C@H](CC(=O)NCCCC)C[C@@]2(C(=O)OC)CCCCC=C12	-11%	-11%
CCOc1ccc(/C=C/C(=O)Nc2sc3c(c2C(=O)OC)CCC3)cc1	-3%	-4%
CCOC(=O)Cc1csc(NC(=O)COc2ccc(C)cc2)n1	i	2%
CCOC(=O)c1ccc(NC(=O)c2ccc(=O)n(Cc3cccc(C)c3)c2)cc1	-26%	-26%
Cc1ccc(-c2ocnc2C(=O)N2CCN(C(=O)c3cccs3)CC2)cc1	i	2%
COc1ccc(O)c(/C=N/NC(=S)NCCc2ccccc2)c1	u	u
Cc1c(N=Nc2c(O)[nH]c(=S)[nH]c2=O)c(=O)n(-c2ccccc2)n1C	-10%	-2%

Next section
SMILES	VACV mCherry inh	VACV Venus inh
COc1ccc(NC(=O)CN2CCc3ccccc3C2)c([N+](=O)[O-])c1	i	-11%
CCOC(=O)C1=CC[C@@H](c2cc3ccc(OC)cc3n2C)N(S(=O)(=O)c2ccc(C)cc2)[C@H]1C(=O)OCC	i	-17%
O=C1CN(C(=O)c2ccc(Br)o2)C(c2ccc(F)cc2)c2cc(Cl)ccc2N1 (centres undefined)	u	-30%
CC(Nc1nc(-c2cccnc2)nc2ccccc12)c1ccc(F)cc1 (centres undefined)	u	-27%
CCOC(=O)N/N=C(\C)c1cccs1	2%	-2%
CCOC(=O)c1cnc2c(ccc3ccccc32)c1Nc1ccc(N(C)C)cc1	-14%	-14%
CCNCC(=O)N1c2ccccc2CCc2ccc(NC(=O)OCC)cc21	i	-11%
CCCCn1c(N)c(N(CCC(C)C)C(=O)C(C)N2C(=O)c3ccccc3C2=O)c(=O)[nH]c1=O (centres undefined)	i	-13%
CCOc1ccccc1NC(=O)C1CCCN(S(=O)(=O)c2cccs2)C1 (centres undefined)	-3%	2%
O=C(CCn1cccn1)Nc1ccc(Br)cc1F	-12%	-13%
O=C(C1CCCCC1)N1C[C@H](n2cc(-c3ccc(F)cc3)nn2)[C@@H](O)C[C@@H]1c1ccccc1	-25%	-10%
C=CCOC(=O)C1=C(C)Nc2nnnn2C1c1cc(OC)ccc1OC (centres undefined)	x	-21%
CCOc1ccccc1NC(=O)COc1ccc(S(=O)(=O)NC2CCCCC2)cc1	-18%	-5%
Cc1ccc(S(=O)(=O)NNC(=S)NC(C)(C)C)cc1	-13%	-13%
COC(=O)c1ccc2c(=O)n(CCCCCC(=O)N3CCN(c4ccc(OC)cc4)CC3)c(=O)[nH]c2c1	-14%	-16%
Cc1nnc(NC(=O)C(C)Sc2nnc(CNC(=O)c3ccccc3F)n2C)s1 (centres undefined)	i	-9%
COCC(=O)N(C)C[C@H]1N[C@@](C)(C(=O)OC)[C@H]2C(=O)N(C)C(=O)[C@@H]12	-3%	3%
ClCC(CNCc1ccccc1)c1ccccc1 (centres undefined)	-8%	0%
Cc1ccc(C(=O)N2CCC(n3nccc3NC(=O)C3CCOC3)CC2)cc1 (centres undefined)	i	-4%
Cc1ccc(/C=C/C(=O)c2ccc([N+](=O)[O-])o2)cc1	-23%	u

Compounds from the list above that contain a nitro group on carbon:
SMILES	VACV mCherry inh	VACV Venus inh
N#C/C(=C/c1ccc(-c2cccc([N+](=O)[O-])c2)o1)C(=O)Nc1nc(-c2cccs2)cs1	-4%	-11%
COC(=O)c1sccc1NC(=O)c1ccccc1[N+](=O)[O-]	-9%	-11%
COc1ccc(NC(=O)CN2CCc3ccccc3C2)c([N+](=O)[O-])c1	i	-11%
Cc1ccc(/C=C/C(=O)c2ccc([N+](=O)[O-])o2)cc1	-23%	u

Other structures.
SMILES	VACV mCherry inh	VACV Venus inh
CC(C)(C)OC(=O)C[C@@H]1C/C=C\C[C@H](CC(=O)NCCO)C(=O)N[C@@H](c2ccccc2)COC1=O	i	-6%
O=C(Nc1ccc(NC(=O)C2CCCCC2)nc1)c1ccco1	x	-13%
CC(=O)C1=C(O)CCC1=NCCc1ccccc1	-5%	1%
O=C(O)CCSc1ccccn1	-1%	-7%
Cc1ccc(C(=O)OCC(=O)Nc2ccc3[nH]c(=O)[nH]c3c2)cc1[N+](=O)[O-]	i	-3%
COc1ccc(CNC(=O)CCN2C(=O)c3ccccc3C2=O)cc1OC	i	-5%
O=C(Nc1ccc(Br)cc1F)N1CC=C(c2c[nH]c3ccccc23)CC1	-28%	-14%
NC(=S)Nc1ccccc1Br	-22%	-14%
CN(Cc1ccccc1F)C(=O)c1ccc(NC(=O)CC2SC(N3CCCCC3)=NC2=O)cc1 (centres undefined)	-19%	-14%
O=C(NCc1ccco1)c1ccc(Cn2c(=O)c3sccc3n(Cc3ccc(F)cc3)c2=O)cc1	i	-7%

Compounds listed so far with a COOH group (4):
SMILES	VACV mCherry inh	VACV Venus inh
COc1cccc(OCc2cc(/C=N/Nc3ccc(C(=O)O)cc3)ccc2OC)c1	u	5%[7.34 µM]
COc1ccc(/C=C2\Oc3cc(OCC(=O)N4CC(O)C[C@H]4C(=O)O)ccc3C2=O)cc1OC (some centres undefined)	-11%	0%
O=C(O)C(F)=C1c2ccccc2-c2ccccc21	-22%	-15%
O=C(O)CCSc1ccccn1	-1%	-7%

(more compounds)
SMILES	VACV mCherry inh	VACV Venus inh
CCCCn1c(SCC(=O)Nc2cccc(OC)c2)nc2ccsc2c1=O	-17%	-20%
CCc1n[nH]c(=S)n1/N=C/c1cccc2ccccc12	-7%	-12%
CCC(Sc1nncn1C)C(=O)Nc1ccccc1OC (centres undefined)	i	-7%
O=C(CCCn1nnc2ccccc2c1=O)N[C@@H](Cc1ccccc1)C(=O)O	i	3%
Nc1ccc(S(=O)(=O)NN=CC=Cc2ccccc2[N+](=O)[O-])cc1	-25%	-4%
Cn1cc(-c2cccc3nncn23)cn1	0%	8%
COCCN(C(=O)CSc1nnc(-c2ccccc2OC)o1)c1c(N)n(CC(C)C)c(=O)[nH]c1=O	0%	-13%
COc1ccc(CC2(CO)CCN(S(=O)(=O)c3c(C)nn(C)c3Cl)CC2)cc1	i	-10%
Cc1ccc(CNC(=O)c2ccc(N3CCC4(CC3)CC(c3cccc(Br)c3)=NO4)c(NC(=O)c3ccc(Br)cc3)c2)cc1	i	-6%
CCC1CCCCN1C(=O)Cn1c(C(=O)OC)cc2sc(Cl)cc21 (centres undefined)	-12%	5%
CCc1ccc([C@@H]2C[C@H]3[C@@H](CN2S(=O)(=O)c2ccc(C)cc2)C(=O)C[C@@H](c2ccc(C)cc2)N3S(=O)(=O)c2ccc(C)cc2)cc1	i	-4%
CCOC(=O)C1=C(COC(=O)CCCOc2ccccc2)NC(=O)NC1C (centres undefined)	-10%	-13%
Cc1[nH]c2c(C)cccc2c1CCNC(=O)c1cc2ccccc2oc1=O	-7%	-7%
Cc1c(NC(=O)c2cc(-c3cccs3)nc3ccccc23)c(=O)n(-c2ccccc2)n1C	-9%	10%
Cn1c(NCC2CCCO2)nc2c1c(=O)n(Cc1ccccc1)c(=O)n2C (centres undefined)	-3%	0%
O=C(CN1CCN(c2cccc(Cl)c2)CC1)Nc1ccc(S(=O)(=O)N2CCOCC2)cc1	u	-29%
CCc1nc2sc(C#N)c(N)c2c2c1CCCC2	i	-27%
Brc1cccc(-c2nnn3c2nc(N2CCCCC2)c2ccccc23)c1	-4%	-6%
COc1cc(Cn2c3ccc(NC(=O)NCc4ccc(F)cc4)cc3c(=O)n2C)ccc1F	-17%	-26%
COc1ccc(NC(=O)CSC2=Nc3ccccc3C3=NC(CCC(=O)NC4CCCCC4)C(=O)N23)cc1Cl (centres undefined)	-7%	-11%

Next section (two carried over from the part before).
SMILES	VACV mCherry inh	VACV Venus inh
COc1cc(Cn2c3ccc(NC(=O)NCc4ccc(F)cc4)cc3c(=O)n2C)ccc1F	-17%	-26%
COc1ccc(NC(=O)CSC2=Nc3ccccc3C3=NC(CCC(=O)NC4CCCCC4)C(=O)N23)cc1Cl (centres undefined)	-7%	-11%
O=C(Oc1ccccc1C(=O)Nc1ccccc1)c1ccc(Br)c([N+](=O)[O-])c1	-9%	-5%
CCOC(=O)C1Nc2c(F)cc(C)cc2C2c3ccccc3CC12 (centres undefined)	u	-5%
Cn1c(C(=O)N2CCCC(C(=O)O)C2)cc2sccc21 (centres undefined)	-6%	2%
C[C@H](O)C#Cc1cnc2c(c1)C(=O)N([C@H](C)CO)C[C@@H](C)[C@H](CN(C)C(=O)Nc1ccc(C(F)(F)F)cc1)O2	-1%	-2%
Cc1cc(NC(=O)COc2ccc(Cl)cc2Cl)n(CCC#N)n1	i	-13%
CS(=O)(=O)c1ccc(C(=O)OCC(=O)N2CCCC2)cc1[N+](=O)[O-]	-3%	-15%
CC1(C)Nc2ccccc2C(=O)N1NC(=O)c1ccccc1	i	-7%
